# A1 apoptosis 2 = blocks A1, raising caspase activity; MEF A1-2A-BIM cells, caspase-Glo luminescence, 3 h; percent of clofoctol response, DMSO zero; caspase activation, % (test concentration not listed); 24,000 tested, under 10 active; in the data active = caspase activation above about 5.9%;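 also: wells of about 30 µL received 50 nL stock; the first replicate is given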
#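 Evaluation: Caspase-3/7 activity from luminescence increase | Assay system: A1-2A-BIM mouse embryonic fibroblasts | Quantity: 2500 MEF cells/well | Medium: RPMI-1640 plus 10% FBS | Detection: Caspase-Glo 3/7 luminescence, 1 h at room temperature | Dosing: 50 nL compound per well, pinned | Timing: Cells settled overnight, compound exposure 3 h at 37 °C, 5% CO2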
# The depositor's hits bear a star. An excerpt (hit frequency here may not be typical).
# The first 4 compounds, to show the layout:
SMILES,A1 apoptosis 2
C[C@@H]1CN([C@H](C)CO)C(=O)c2cc(NC(=O)C3CC3)ccc2O[C@@H]1CN(C)C(=O)Nc1cccc2ccccc12,0.3
C[C@H](CO)N1C[C@H](C)[C@@H](CN(C)Cc2ccc(C(=O)Nc3ccccc3N)cc2)Oc2ccc(NS(=O)(=O)c3ccccc3)cc2CC1=O,0.5
Cc1noc(C)c1NC(=O)Nc1ccc2c(c1)C(=O)N([C@@H](C)CO)C[C@H](C)[C@@H](CN(C)C(=O)c1ccccc1)OCCCC[C@@H](C)O2,-0.6
C[C@@H]1CN([C@H](C)CO)C(=O)c2cccc(NC(=O)Nc3cccc4ccccc34)c2O[C@@H]1CN(C)S(=O)(=O)c1ccc(Cl)cc1,-0.3

# All compounds of this part, previewed entries included:
SMILES,A1 apoptosis 2
C[C@@H]1CN([C@H](C)CO)C(=O)c2cc(NC(=O)C3CC3)ccc2O[C@@H]1CN(C)C(=O)Nc1cccc2ccccc12,0.3
C[C@H](CO)N1C[C@H](C)[C@@H](CN(C)Cc2ccc(C(=O)Nc3ccccc3N)cc2)Oc2ccc(NS(=O)(=O)c3ccccc3)cc2CC1=O,0.5
Cc1noc(C)c1NC(=O)Nc1ccc2c(c1)C(=O)N([C@@H](C)CO)C[C@H](C)[C@@H](CN(C)C(=O)c1ccccc1)OCCCC[C@@H](C)O2,-0.6
C[C@@H]1CN([C@H](C)CO)C(=O)c2cccc(NC(=O)Nc3cccc4ccccc34)c2O[C@@H]1CN(C)S(=O)(=O)c1ccc(Cl)cc1,-0.3
Cc1noc(C)c1NC(=O)Nc1ccc2c(c1)CC(=O)N([C@@H](C)CO)C[C@H](C)[C@H](CN(C)C(=O)Nc1ccc3c(c1)OCO3)O2,-0.2
C[C@@H]1CN([C@H](C)CO)C(=O)Cc2cc(NC(=O)Nc3ccc(F)cc3)ccc2O[C@@H]1CN(C)S(C)(=O)=O,0.0
COc1ccc(S(=O)(=O)Nc2ccc3c(c2)CC(=O)N([C@@H](C)CO)C[C@@H](C)[C@H](CN(C)C(=O)Nc2ccccc2)O3)cc1,0.1
CC(C)NC(=O)Nc1ccc2c(c1)C(=O)N([C@H](C)CO)C[C@H](C)[C@H](CN(C)C(=O)Nc1ccccc1)OCCCC[C@H](C)O2,0.0
COc1ccc(CN(C)C[C@H]2Oc3ccc(NC(=O)C4CC4)cc3C(=O)N([C@@H](C)CO)C[C@@H]2C)cc1,-0.2
C[C@H]1CN([C@@H](C)CO)C(=O)Cc2cc(NC(=O)Nc3ccccc3)ccc2O[C@@H]1CN(C)Cc1ccc(C(=O)Nc2ccccc2N)cc1,-1.0
C[C@@H]1CCCCO[C@H](CN(C)C)[C@@H](C)CN([C@H](C)CO)C(=O)c2cc(NC(=O)C3CCCCC3)ccc2O1,0.0
C[C@@H]1CN([C@H](C)CO)C(=O)c2cc(N(C)C)ccc2O[C@@H](C)CCCCO[C@@H]1CN(C)C(=O)Cc1ccccc1,0.3
CC(C)NC(=O)Nc1ccc2c(c1)C(=O)N([C@@H](C)CO)C[C@H](C)[C@H](CN(C)C)OCCCC[C@H](C)O2,0.1
Cc1noc(C)c1NC(=O)N(C)C[C@H]1Oc2c(NC(=O)C3CCOCC3)cccc2C(=O)N([C@@H](C)CO)C[C@@H]1C,-0.1
COc1ccc(CN(C)C[C@H]2Oc3ccc(NC(=O)Cn4cnnn4)cc3CC(=O)N([C@H](C)CO)C[C@H]2C)cc1,0.1
Cc1ccc(S(=O)(=O)Nc2ccc3c(c2)C(=O)N([C@H](C)CO)C[C@H](C)[C@H](CN(C)S(=O)(=O)c2ccc(F)cc2)O3)cc1,1.2
C[C@H]1CN([C@@H](C)CO)C(=O)c2cc(NC(=O)c3ccncc3)ccc2O[C@H]1CN(C)Cc1ccc2c(c1)OCO2,0.5
Cc1noc(C)c1NC(=O)Nc1cccc2c1O[C@@H](CN(C)Cc1ccncc1)[C@@H](C)CN([C@@H](C)CO)C2=O,-0.9
C[C@H](CO)N1C[C@H](C)[C@H](CN(C)CC2CC2)OCCCC[C@H](C)Oc2ccc(NS(=O)(=O)c3ccccc3)cc2C1=O,0.9
C[C@@H]1CN([C@H](C)CO)C(=O)c2cc(NS(=O)(=O)c3ccccc3)ccc2O[C@@H]1CN(C)CC1CCCCC1,0.1
Cc1noc(C)c1NC(=O)N(C)C[C@H]1OCCCC[C@H](C)Oc2ccc(NS(C)(=O)=O)cc2C(=O)N([C@@H](C)CO)C[C@@H]1C,0.6
C[C@@H]1CCCCO[C@H](CN(C)C)[C@@H](C)CN([C@H](C)CO)C(=O)c2cc(NS(C)(=O)=O)ccc2O1,0.7
C[C@@H]1CN([C@@H](C)CO)C(=O)Cc2cc(NC(=O)Cc3cn(C)c4ccccc34)ccc2O[C@H]1CN(C)S(C)(=O)=O,1.3
C[C@@H]1CCCCO[C@H](CN(C)C(=O)Nc2ccc3c(c2)OCO3)[C@H](C)CN([C@H](C)CO)C(=O)c2cc(NC(=O)Nc3ccccc3)ccc2O1,1.3
CC(C)NC(=O)Nc1ccc2c(c1)C(=O)N([C@@H](C)CO)C[C@H](C)[C@H](CN(C)Cc1ccc(Cl)c(Cl)c1)O2,-0.3
C[C@@H]1CN([C@H](C)CO)C(=O)Cc2cc(NC(=O)Cc3cn(C)c4ccccc34)ccc2O[C@@H]1CN(C)C(=O)NC1CCCCC1,-0.5
Cc1noc(C)c1NC(=O)N(C)C[C@H]1Oc2c(cccc2N(C)C)C(=O)N([C@H](C)CO)C[C@H]1C,0.0
CCO[C@H]1OC(C(=O)NC2CC2)=C[C@@H](C)[C@@H]1CCCO,0.0
O=C(NCc1ccc(F)cc1)[C@H]1C[C@H]2C(=O)NCC(=O)N2[C@H]1c1ccc(O)cc1,-0.1
COc1ccc(CN(C)C[C@H]2OCCCC[C@H](C)Oc3ccc(NS(=O)(=O)c4ccc(C)cc4)cc3C(=O)N([C@H](C)CO)C[C@H]2C)cc1,-1.5
O=C(O)CCCCCC(=O)N/N=C/c1ccc(O)cc1Br,0.4
C[C@@H]1CN([C@H](C)CO)C(=O)c2cc(NS(C)(=O)=O)ccc2O[C@@H]1CN(C)Cc1ccc(C(=O)O)cc1,1.1
C[C@@H]1CN([C@@H](C)CO)C(=O)c2cc(NC(=O)Nc3ccc(F)cc3)ccc2O[C@@H](C)CCCCO[C@H]1CN(C)C(=O)C1CCCCC1,0.8
COc1ccc(S(=O)(=O)N(C)C[C@@H]2Oc3ccc(NC(=O)Cc4cn(C)c5ccccc45)cc3C(=O)N([C@H](C)CO)C[C@H]2C)cc1,1.6
C[C@H]1CN([C@@H](C)CO)C(=O)CCCn2nncc2CO[C@@H]1CN(C)C(=O)Nc1ccc(C(F)(F)F)cc1,-0.8
COc1ccc(S(=O)(=O)N(C)C[C@H]2Oc3ccc(NS(=O)(=O)c4cn(C)cn4)cc3CC(=O)N([C@@H](C)CO)C[C@@H]2C)cc1,0.7

# Reprinted at random: 3 records from the list, in no set order.
SMILES,A1 apoptosis 2
C[C@@H]1CN([C@H](C)CO)C(=O)c2cc(NS(C)(=O)=O)ccc2O[C@@H]1CN(C)Cc1ccc(C(=O)O)cc1,1.1
O=C(O)CCCCCC(=O)N/N=C/c1ccc(O)cc1Br,0.4
C[C@@H]1CN([C@H](C)CO)C(=O)Cc2cc(NC(=O)Cc3cn(C)c4ccccc34)ccc2O[C@@H]1CN(C)C(=O)NC1CCCCC1,-0.5

# Later entries:
SMILES,A1 apoptosis 2
C[C@H]1CN([C@@H](C)CO)C(=O)Cc2cc(NC(=O)C3CC3)ccc2O[C@@H]1CN(C)Cc1ccc(C(=O)O)cc1,1.1
COc1ccc(S(=O)(=O)N(C)C[C@@H]2OCCCC[C@@H](C)Oc3ccc(NC(=O)NC(C)C)cc3C(=O)N([C@@H](C)CO)C[C@@H]2C)cc1,-0.3
O=C(NC1CC1)C1=C[C@@H](C2CC2)C[C@@H](OCCCCO)O1,1.3
C[C@@H]1CN([C@@H](C)CO)C(=O)c2cc(NS(=O)(=O)c3cccs3)ccc2O[C@@H]1CN(C)CC1CC1,-0.2
C[C@@H]1CCCCO[C@@H](CN(C)C(=O)c2ccccc2)[C@@H](C)CN([C@@H](C)CO)C(=O)c2cc(NS(=O)(=O)c3ccccc3)ccc2O1,-0.3
C[C@@H]1CCCCO[C@H](CN(C)S(=O)(=O)c2cccs2)[C@@H](C)CN([C@H](C)CO)C(=O)c2cc(NS(=O)(=O)c3ccc(Cl)cc3)ccc2O1,0.1
COc1ccc(NC(=O)N(C)C[C@H]2OCCCC[C@@H](C)Oc3ccc(NS(=O)(=O)c4cn(C)cn4)cc3C(=O)N([C@@H](C)CO)C[C@H]2C)cc1,-0.2
OCCSCC(O)CC(O)c1ccccc1 (stereo not drawn),0.0
C[C@@H]1CN([C@H](C)CO)C(=O)c2cc(NC(=O)C3CC3)ccc2O[C@@H]1CN(C)CC1CC1,1.0
COc1ccc([Si](C)(C)[C@@H]2[C@@H](CCO)O[C@]3(C(=O)N(Cc4ccccc4)c4ccc(N5CCC5=O)cc43)[C@H]2C)cc1,-0.7
COCCOC(=O)N1C(=O)[C@@]2(c3cc(C#CCNC(N)=O)ccc31)[C@H](c1ccccc1OCCO)N1[C@H](c3ccccc3)[C@H](c3ccccc3)OC(=O)[C@H]1[C@@H]2C(N)=O,0.5
C[C@@H]1CN([C@H](C)CO)C(=O)c2cc(NS(=O)(=O)c3cn(C)cn3)ccc2O[C@H]1CN(C)C(=O)Nc1cccc2ccccc12,-0.6
C[C@H](CO)N1C[C@H](C)[C@@H](CN(C)C(=O)Nc2ccccc2)Oc2ccc(NC(=O)CCC(F)(F)F)cc2C1=O,0.8
CNC[C@H]1Oc2ccc(NC(=O)NC(C)C)cc2CC(=O)N([C@H](C)CO)C[C@@H]1C,1.1
C[C@H]1CN([C@@H](C)CO)C(=O)Cc2cc(NC(=O)CCN3CCOCC3)ccc2O[C@@H]1CN(C)C(=O)Nc1cccc2ccccc12,-0.8
COc1ccc(CN(C)C[C@@H]2Oc3ccc(NS(=O)(=O)c4cn(C)cn4)cc3C(=O)N([C@H](C)CO)C[C@H]2C)cc1,-1.0
COc1ccc([Si](C)(C)[C@@H]2[C@@H](CC(=O)N3Cc4ccccc4C[C@H]3CO)O[C@]3(C(=O)N(C)c4c(Br)cc(C)cc43)[C@H]2C)cc1,-0.2
C[C@@H]1CN([C@H](C)CO)C(=O)c2cccc(NS(=O)(=O)c3ccc(Cl)cc3)c2O[C@H]1CN(C)C(=O)Nc1ccc(F)cc1,3.0
C[C@@H]1CCCCO[C@@H](CN(C)S(C)(=O)=O)[C@H](C)CN([C@@H](C)CO)C(=O)c2cc(NS(=O)(=O)c3ccccc3)ccc2O1,0.6
COc1ccc(NC(=O)N(C)C[C@H]2OCCCC[C@H](C)Oc3ccc(NC(=O)NC(C)C)cc3C(=O)N([C@@H](C)CO)C[C@@H]2C)cc1,0.9
C[C@@H]1CN([C@@H](C)CO)C(=O)c2cc(NS(=O)(=O)c3cccs3)ccc2O[C@H]1CN(C)C,0.3
C[C@@H]1CN([C@H](C)CO)C(=O)c2cccc(NC(=O)Nc3ccc4c(c3)OCO4)c2O[C@H]1CN(C)S(C)(=O)=O,-0.9
C[C@@H]1CN([C@@H](C)CO)C(=O)Cc2cc(NC(=O)c3ccncc3)ccc2O[C@H]1CN(C)Cc1ccc2c(c1)OCO2,0.1
C[C@@H]1CN([C@H](C)CO)C(=O)c2cccc(NC(=O)NC3CCCCC3)c2O[C@@H]1CN(C)Cc1ccc(C(=O)Nc2ccccc2N)cc1,0.9

# Copied from the list.
# C[C@H](CO)N1C[C@H](C)[C@@H](CN(C)C(=O)Nc2ccccc2)Oc2ccc(NC(=O)CCC(F)(F)F)cc2C1=O @ A1 apoptosis 2: 0.8
# C[C@@H]1CN([C@H](C)CO)C(=O)c2cccc(NS(=O)(=O)c3ccc(Cl)cc3)c2O[C@H]1CN(C)C(=O)Nc1ccc(F)cc1 @ A1 apoptosis 2: 3.0

# Continued:
SMILES,A1 apoptosis 2
C[C@@H]1CN([C@@H](C)CO)C(=O)CCCn2nncc2CO[C@@H]1CN(C)Cc1ccc(-c2ccccc2)cc1,-1.5
CC(C)NC(=O)Nc1ccc2c(c1)C(=O)N([C@H](C)CO)C[C@H](C)[C@@H](CN(C)S(C)(=O)=O)O2,-1.7
C[C@@H]1CCCCO[C@H](CN(C)Cc2ccc(Cl)c(Cl)c2)[C@H](C)CN([C@@H](C)CO)C(=O)c2cc(NC(=O)C3CCCCC3)ccc2O1,-0.4
CC(C)NC(=O)Nc1cccc2c1O[C@H](CN(C)Cc1ccc(Oc3ccccc3)cc1)[C@@H](C)CN([C@@H](C)CO)C2=O,0.4
Cc1ccc(S(=O)(=O)N(C)C[C@@H]2Oc3ccc(NC(=O)Nc4ccccc4)cc3C(=O)N([C@@H](C)CO)C[C@@H]2C)cc1,-0.9
C[C@H](CO)N1C[C@H](C)[C@H](CN(C)C(=O)NC2CCCCC2)Oc2ccc(NC(=O)Nc3cccc4ccccc34)cc2CC1=O,-0.2
COc1ccc(CN(C)C[C@@H]2OCCCC[C@@H](C)Oc3ccc(NS(=O)(=O)c4c(C)noc4C)cc3C(=O)N([C@@H](C)CO)C[C@@H]2C)cc1,-0.1
CC(C)NC(=O)N(C)C[C@@H]1OCCCC[C@H](C)Oc2ccc(NC(=O)C3CCCCC3)cc2C(=O)N([C@@H](C)CO)C[C@H]1C,0.9
C[C@H](CO)N1C[C@H](C)[C@@H](CN(C)C(=O)Nc2ccc(F)cc2)Oc2ccc(NC(=O)c3ccncc3)cc2CC1=O,0.4
C[C@@H]1CN([C@H](C)CO)C(=O)c2cc(NC(=O)CCC(F)(F)F)ccc2O[C@@H](C)CCCCO[C@H]1CN(C)C(=O)CCC(F)(F)F,-0.9
Cc1noc(C)c1S(=O)(=O)N(C)C[C@H]1Oc2c(cccc2N(C)C)C(=O)N([C@@H](C)CO)C[C@@H]1C,0.7
Cc1ccc(S(=O)(=O)Nc2ccc3c(c2)CC(=O)N([C@@H](C)CO)C[C@H](C)[C@H](CN(C)C(=O)Nc2ccccc2)O3)cc1,1.1
